# Screening results from PubChem.
# DUX4 inh: blocks DUX4-driven transcriptional activation; 293T-iDUX4 ZSCAN4-Gaussia luciferase reporter, 24 h; active compounds read low; activity change, negative = inhibition, % (test concentration not listed); actives 0.8% (n = 37,000); AID 1224904;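 active means -10% or lower and over 25 points stronger than a control reporter; inconclusive means -10% or lower with a smaller gap; inactive means above -10%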;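 further: 0% = median of neutral control wells and -100% = median of positive control wells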
# DUX4 inh difference: second read-out of DUX4 inh, no call of its own (marks repeat the call); Gaussia minus Italica difference, %; measured here: selective DUX4 reporter inhibition;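 worked out from the two reporters; negative = selective loss of the DUX4 reporter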
# DUX4 inh control: second read-out of DUX4 inh, no call of its own (marks repeat the call); activity change, negative = inhibition, %; measured here: Italica tet-on control reporter;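 0 = neutral control and -100 = positive control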
# The depositor's hits bear a star; ? = inconclusive; nt = not tested or not shown.
# The opening 3 entries as a preview:
SMILES	DUX4 inh	DUX4 inh difference	DUX4 inh control
C[C@@H]1CN([C@H](C)CO)C(=O)c2c(c3ccccc3n2C)-c2ccccc2CO[C@H]1CN(C)Cc1ccncc1	20	19	0.6
CNC[C@@H]1OCCCC[C@@H](C)Oc2ccc(NC(=O)Cc3ccccc3)cc2C(=O)N([C@H](C)CO)C[C@H]1C	-3	-2	-1.6
COc1ccccc1-c1ccc([C@H]2[C@@H](C#N)N(C(=O)C3CCC3)[C@H]2CO)cc1	1	-1	1.9

# The list itself, repeating the preview:
SMILES	DUX4 inh	DUX4 inh difference	DUX4 inh control
C[C@@H]1CN([C@H](C)CO)C(=O)c2c(c3ccccc3n2C)-c2ccccc2CO[C@H]1CN(C)Cc1ccncc1	20	19	0.6
CNC[C@@H]1OCCCC[C@@H](C)Oc2ccc(NC(=O)Cc3ccccc3)cc2C(=O)N([C@H](C)CO)C[C@H]1C	-3	-2	-1.6
COc1ccccc1-c1ccc([C@H]2[C@@H](C#N)N(C(=O)C3CCC3)[C@H]2CO)cc1	1	-1	1.9
CCCNC(=O)N(C)C[C@H]1Oc2cc(-c3cccnc3)ccc2S(=O)(=O)N([C@@H](C)CO)C[C@@H]1C	1	-4	4.8
CN(C)C(=O)[C@H]1[C@H](CO)[C@H]2Cn3c(cccc3=O)[C@H]2N1CCc1ccccc1	3	1	1.8
COc1cccc(C#Cc2ccc([C@@H]3[C@@H](C#N)N(C(=O)c4ccccn4)[C@H]3CO)cc2)c1	0	3	-2.4
CC=Cc1ccc2n(c1=O)C[C@@H]1[C@@H](CO)[C@H](C(=O)NCc3ccc(F)cc3)N(Cc3cncnc3)[C@H]21 (mixture of isomers)	-5	-7	1.4
C[C@H](CO)N1C[C@H](C)[C@@H](CN(C)S(=O)(=O)c2ccc(C(F)(F)F)cc2)OCc2ccccc2-c2c(n(C)c3ccccc23)C1=O	?	nt	nt
CN1[C@@H]2Cn3c(ccc(-c4ccc(F)cc4)c3=O)[C@H]1[C@@H](C(=O)N1CCCCC1)[C@@H]2CO	-2	-1	-0.7
Cc1noc(C)c1S(=O)(=O)N(C)C[C@H]1OCc2ccccc2-c2c(n(C)c3ccccc23)C(=O)N([C@@H](C)CO)C[C@H]1C	-4	11	-15
N#Cc1ccc(-c2ccc([C@@H]3[C@H](CO)N4CCCCN(C(=O)Nc5ccc(F)cc5)C[C@@H]34)cc2)cc1	13	16	-2.6
COc1ccc(S(=O)(=O)Nc2cccc3c2O[C@@H](CN(C)CC2CCCCC2)[C@H](C)CN([C@H](C)CO)C3=O)cc1	-5	-1	-3.1
CCC(=O)N[C@@H]1C=C[C@H](CC(=O)NCc2cc(F)cc(F)c2)O[C@@H]1CO	3	-1	3.5
Cc1ccc(S(=O)(=O)NCC[C@H]2CC[C@@H](NC(=O)CCN3CCCCC3)[C@@H](CO)O2)cc1	5	0	5.0
Cc1noc(C)c1NC(=O)Nc1cccc2c1O[C@H](CN(C)C(=O)NC1CCCCC1)[C@H](C)CN([C@@H](C)CO)C2=O	5	6	-1.1
N#C[C@@H]1[C@@H](c2ccccc2-c2cccc(F)c2)[C@H](CO)N1C(=O)Cc1cccnc1	22	28	-5.6
CCCC#Cc1ccc([C@H]2[C@@H](C#N)N(C(=O)C3CCC3)[C@H]2CO)cc1	3	2	1.2
CCCC(=O)Nc1ccc2c(c1)C(=O)N(C)[C@H]1CC[C@H](CC(=O)NCCOC)O[C@@H]1CO2	2	-1	2.7
CO[C@H]1CN(C)C(=O)c2ccc(NC(=O)C3CC3)cc2OC[C@@H](C)N(Cc2nccs2)C[C@@H]1C	-2	-4	2.0
CN1C(=O)c2cc(NC(=O)c3cccs3)ccc2OC[C@@H]2O[C@@H](CC(=O)O)CC[C@@H]21	-3	-10	7.4
O=C(C[C@H]1C[C@@H]2c3cc(NC(=O)C4CCOCC4)ccc3O[C@@H]2[C@H](CO)O1)NCc1cccnc1	10	3	7.1
CCCN1[C@@H]2c3ccc(C4=CCCC4)c(=O)n3C[C@H]1[C@H](CO)[C@H]2C(=O)NCc1ccccn1	0	-2	1.7
COCCNC(=O)C[C@H]1C[C@@H]2c3cc(NS(=O)(=O)c4ccccc4)ccc3O[C@@H]2[C@@H](CO)O1	-2	-3	1.1
CN(C)CCCNC(=O)C[C@H]1CC[C@@H]2[C@H](COC[C@@H](O)CN2C(=O)c2ccncc2)O1	12	9	3.2
C[C@H](NC(=O)C[C@@H]1CC[C@@H]2[C@H](COc3ccc(NS(=O)(=O)c4ccc(Cl)cc4)cc3C(=O)N2C)O1)c1ccccc1	-1	2	-2.9
O=C(C[C@@H]1CC[C@H](NC(=O)CC2CC2)[C@H](CO)O1)NCc1ccc(-c2ccccc2)cc1	-7	2	-9.5
CN(C)CCCNC(=O)C[C@H]1CC[C@H]2[C@H](COc3ccc(NC(=O)c4ccccc4F)cc3C(=O)N2C)O1	2	-4	5.7
CN(C)C(=O)C[C@H]1CC[C@H](NC(=O)Nc2cccc(F)c2)[C@@H](CO)O1	8	4	4.3
CCCC(=O)Nc1ccc2c(c1)C(=O)N(C)C[C@@H](OC)[C@@H](C)CN(C)[C@@H](C)CO2	-1	-4	3.2
COc1ccc(CN2CC3(CN(C(=O)c4ccccc4)C3)c3c([nH]c4cc(OC)ccc34)[C@@H]2CO)cc1	-51*	-36*	-16*

# Value order – DUX4 inh, DUX4 inh difference, DUX4 inh control
COc1ccccc1CN1[C@@H]2CNC[C@H]1C2c1ccc(-c2cccnc2)cc1 (stereo partly drawn)
    4, 12, -7.7
CC=Cc1ccc2n(c1=O)C[C@H]1[C@H](CO)[C@@H](C(=O)N[C@@H](C)c3ccccc3)[C@@H]2N1CC1CC1 (mixture of isomers)
    -1, -1, 0.2
O=C(C[C@H]1CC[C@H]2[C@@H](COC[C@@H](O)CN2Cc2nccs2)O1)NCc1ccc(Cl)cc1
    0, -2, 1.7
O=C(Cc1ccccn1)N[C@@H]1CC[C@@H](CCNS(=O)(=O)c2cccc(F)c2)O[C@@H]1CO
    5, 9, -4.0
O=C(C1CC1)N1CC[C@@H]2[C@@H](CO)Nc3ccc(-c4ccc(F)cc4)cc3[C@@H]21
    ?, nt, nt
O=C(c1ccccn1)N1CC[C@@H]2[C@H](CO)Nc3ccc(-c4ccccc4F)cc3[C@@H]21
    -5, -9, 4.0
CO[C@H]1CC[C@H]2CCOc3c(C#N)cccc3C(=O)N(C)C[C@@H](C)C(=O)N(C)C[C@@H]1O2
    4, 0, 4.6
O=C(Cc1cccnc1)N1CC2(C1)[C@@H](c1ccccc1)[C@H](CO)N2C(=O)C1CCOCC1
    -1, 2, -3.1
O=C(Nc1cc(F)ccc1F)N1CC(=O)N2[C@H](CO)[C@H](c3ccc(-c4ccc(F)cc4)cc3)[C@@H]2C1
    -7, -3, -3.8
O=C(C[C@H]1C[C@H]2c3cc(NC(=O)c4cccnc4)ccc3O[C@H]2[C@H](CO)O1)NCC(F)(F)F
    3, 6, -3.0
Cc1noc(C)c1S(=O)(=O)Nc1cccc2c1O[C@@H](CN(C)Cc1ccc(C(F)(F)F)cc1)[C@@H](C)CN([C@@H](C)CO)C2=O
    -1, -2, 1.0
COc1ccccc1CNC(=O)C[C@@H]1CC[C@H]2[C@@H](COC[C@H](O)CN2Cc2ccccc2)O1
    1, -3, 3.5
C[C@@H]1CN([C@@H](C)CO)C(=O)c2ccccc2-c2ccccc2CO[C@H]1CN(C)C(=O)Nc1cccc(Cl)c1Cl
    5, -2, 6.3
COc1ccc(S(=O)(=O)N(C)C[C@@H]2Oc3ccc(N(C)C)cc3CC(=O)N([C@H](C)CO)C[C@H]2C)cc1
    0, -1, 1.3
CC(C)(C)[S@@](=O)N1Cc2cc(C(=O)N3CCc4ccccc4C3)nc(-c3cccc(-c4cccnc4)c3)c2[C@H]1CCO
    -4, -2, -2.0

# Value order – DUX4 inh, DUX4 inh difference, DUX4 inh control
O=C(Nc1ccc(F)cc1)N1CC(=O)N2[C@H](C1)[C@@H](c1ccc(C#Cc3cccnc3)cc1)[C@@H]2CO
    ?, nt, nt
CCC(=O)N1CCC2(CC1)CN(CC1CCCCC1)[C@@H](CO)c1c2c2ccc(OC)cc2n1C
    11, 10, 0.5
CN1c2ccc(C#Cc3ccc(F)cc3)cc2[C@H]2[C@H](CCN2S(=O)(=O)c2ccccc2F)[C@@H]1CO
    -4, -8, 3.9
COc1ccc(-c2ccc([C@@H]3[C@@H](C#N)N(C(=O)C4CCC4)[C@@H]3CO)cc2)cc1
    -1, 0, -1.0
COc1cccc(-c2ccc([C@@H]3[C@@H](CO)N4CCCCN(S(=O)(=O)c5cn(C)cn5)C[C@H]34)cc2)c1
    7, 4, 2.4
O=C(Cc1ccncc1)N1CC(=O)N2[C@H](C1)[C@@H](c1ccc(Br)cc1)[C@@H]2CO
    0, -25, 25
C[C@@H]1CN([C@H](C)CO)C(=O)c2cc(NC(=O)Cc3cn(C)c4ccccc34)ccc2O[C@@H]1CN(C)C(=O)Nc1ccc(C(F)(F)F)cc1
    5, 1, 4.5
CO[C@H]1CN(C)C(=O)c2ccc(NC(=O)Nc3ccccc3F)cc2OC[C@H](C)N(C(C)=O)C[C@H]1C
    1, 1, -0.4
CCS(=O)(=O)NCC[C@H]1CC[C@H](NC(=O)Nc2cc(Cl)cc(Cl)c2)[C@H](CO)O1
    -3, -8, 4.5
COc1ccc2c3c([nH]c2c1)[C@H](CO)N(C(=O)c1ccncc1)CC31CN(C(=O)Nc2cccc(F)c2)C1
    14, 4, 9.7
C[C@H](CO)N1C[C@H](C)[C@@H](CN(C)Cc2ccccc2C(=O)O)Oc2cc(-c3ccc(F)cc3)ccc2S1(=O)=O
    -1, -2, 1.8
N#C[C@H]1[C@H](c2ccccc2-c2ccccc2)[C@@H](CO)N1C(=O)NC1CCCC1
    ?, nt, nt
CCC(=O)N[C@H]1CC[C@@H](CCNC(=O)Nc2ccc(F)cc2)O[C@H]1CO
    0, 0, 0.6
N#C[C@@H]1[C@H](c2ccccc2C2=CCCC2)[C@H](CO)N1C(=O)C1CCOCC1
    4, -4, 8.2
CC(C)NC(=O)N(C)C[C@H]1OCc2cn(nn2)CCCC(=O)N([C@@H](C)CO)C[C@H]1C
    -2, -4, 2.0

# 3 of these compounds, set out differently:
O=C(Cc1ccncc1)N1CC(=O)N2[C@H](C1)[C@@H](c1ccc(Br)cc1)[C@@H]2CO
- DUX4 inh: 0
- DUX4 inh difference: -25
- DUX4 inh control: 25

C[C@@H]1CN([C@H](C)CO)C(=O)c2cc(NC(=O)Cc3cn(C)c4ccccc34)ccc2O[C@@H]1CN(C)C(=O)Nc1ccc(C(F)(F)F)cc1
- DUX4 inh: 5
- DUX4 inh difference: 1
- DUX4 inh control: 4.5

CO[C@H]1CN(C)C(=O)c2ccc(NC(=O)Nc3ccccc3F)cc2OC[C@H](C)N(C(C)=O)C[C@H]1C
- DUX4 inh: 1
- DUX4 inh difference: 1
- DUX4 inh control: -0.4

# (further entries)
# Value order – DUX4 inh, DUX4 inh difference, DUX4 inh control
CC=Cc1ccc2n(c1=O)C[C@H]1[C@H](CO)[C@@H](C(=O)NCC)N(Cc3cccc(F)c3)[C@@H]21 (mixture of isomers)
    5, 5, 0.3
CN1C(=O)c2cc(NC(=O)C3CCCC3)ccc2OC[C@H]2O[C@H](CC(=O)NCC(F)(F)F)CC[C@H]21
    1, 1, 0.5
COc1ccc(S(=O)(=O)N(C)C[C@H]2OCCCC[C@H](C)Oc3ccc(NC(=O)Cc4ccccc4)cc3C(=O)N([C@@H](C)CO)C[C@@H]2C)cc1
    -1, -1, 0.6
CCC(=O)N1CC2(C1)[C@@H](c1ccc(C3=CCCC3)cc1)[C@@H](CO)N2C(=O)COC
    3, -1, 3.6
C[C@H](CO)N1C[C@H](C)[C@H](CN(C)C(=O)Cc2cccnc2)Oc2ncc(C#Cc3ccccc3F)cc2C1=O
    -2, -2, -0.1
CNC[C@H]1Oc2ccc(NC(=O)Nc3c(C)noc3C)cc2C(=O)N([C@@H](C)CO)C[C@@H]1C
    0, 3, -2.9
CCCC(=O)Nc1ccc2c(c1)C(=O)N(C)[C@@H]1CC[C@@H](CC(=O)NCCOC)O[C@H]1CO2
    0, -1, 1.1
O=C(C[C@@H]1C[C@H]2c3cc(NC(=O)CC4CC4)ccc3O[C@H]2[C@@H](CO)O1)NCc1ccncc1
    1, 1, 0.6
C[C@H](CO)N1C[C@H](C)[C@@H](CN(C)C(=O)c2ccc(N3CCN(C)CC3)cc2)OCc2cn(nn2)CCCC1=O
    -4, -3, -0.8
CO[C@H]1CN(C)C(=O)c2cc(NC(=O)NC(C)C)ccc2OC[C@@H](C)N(Cc2ccccc2)C[C@@H]1C
    0, -7, 6.8
COc1ccccc1-c1ccc([C@H]2[C@H](CO)N[C@@H]2C#N)cc1
    0, -4, 4.4
COc1ccc(-c2ccc3n(c2=O)C[C@@H]2[C@@H](CO)[C@H](C(=O)N4CCN(C)CC4)N[C@H]32)cc1
    10, 6, 3.9
CCCC(=O)N1C[C@H]2[C@@H](c3ccccc31)[C@H](CO)N2C(=O)CC1CC1
    -2, 1, -2.3
Cc1ccc(S(=O)(=O)N2C[C@@H](O)COC[C@@H]3O[C@H](CC(=O)NCCCN(C)C)CC[C@H]32)cc1
    17, 9, 7.6
O=S(=O)(N[C@@H]1CC[C@H](CCn2cc(-c3cccnc3)nn2)O[C@@H]1CO)c1ccc(Cl)cc1
    0, -1, 0.4
N#C[C@H]1[C@@H](c2ccccc2-c2cccc(F)c2)[C@H](CO)N1S(=O)(=O)c1cccc(F)c1
    -8, -5, -2.7
C[C@H]1CN([C@@H](C)CO)C(=O)c2cc(N(C)C)ccc2O[C@H]1CN(C)Cc1ccc(Oc2ccccc2)cc1
    0, -6, 6.7
CO[C@H](CN(C)C(=O)c1ccccc1F)[C@H](C)CN([C@@H](C)CO)S(=O)(=O)c1ccc(Cl)cc1
    3, -2, 4.6

# Only part of the results is shown (hit frequency here may not be typical).
